TRPML1 blocker = human mucolipin-1 channel inhibition; activity change, negative = inhibition, % (test concentration not listed); TRPML1-inducible cells, Ca2+ dye fluorescence, FDSS; active compounds read low; inhibition of EC80 agonist-evoked calcium signal; 0.02% of 390,000 active; AID 624415; in the data active means activity change below about -50%; inconclusive means about -30% to -50%; inactive means above about -30%;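 also: stimulus is agonist 54-4 at its EC80 concentration; % is scaled to controls: 0 for no effect and ±100 for the full control effect; compound concentration not given in the record; the text of the record puts the active cut at -80%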
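Calcium fluorescence in TRPML1-DL cells induced overnight with Tet: a 110 s read after compound pin addition, then a 110 s antagonist read after challenge with 54-4 at 4 uM final (EC80).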
D2 potentiator = human D2 receptor positive allosteric modulation. potentiation, % (test concentration not listed). P14416. DiscoveRx D2 beta-arrestin cells, luminescence, 90 min; 100% = 57 uM dopamine signal. AID 624464. 0.23% of 360,000 active; active = potentiation of 50% or more; inconclusive = 30% to 50%; inactive = 30% or less;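 also: compound concentration not given in the record; tested on top of an EC20 dose of dopamine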
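PathHunter D2 cells, attached overnight at 37 deg C, received compound in DMSO plus dopamine at EC20 (50 nM final) for 90 min at 37 deg C. Beta-arrestin recruitment was read as luminescence after 1 h with detection reagent at ambient temperature.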
TRPV1 PAM = human TRPV1 potentiation; TRPV1-expressing cells, Fluo-8 calcium influx, capsaicin EC20 potentiation; host cell line not named in the record; control for the full effect not named in the record; Q8NER1; 0.02% of 320,000 active; AID 540277; potentiation, % at 8.33 µM; active means potentiation above 80%; inconclusive means 30% to 80%; inactive means below 30%; also: 0% is about no effect
Target sequence (Q8NER1 whole entry, looked up): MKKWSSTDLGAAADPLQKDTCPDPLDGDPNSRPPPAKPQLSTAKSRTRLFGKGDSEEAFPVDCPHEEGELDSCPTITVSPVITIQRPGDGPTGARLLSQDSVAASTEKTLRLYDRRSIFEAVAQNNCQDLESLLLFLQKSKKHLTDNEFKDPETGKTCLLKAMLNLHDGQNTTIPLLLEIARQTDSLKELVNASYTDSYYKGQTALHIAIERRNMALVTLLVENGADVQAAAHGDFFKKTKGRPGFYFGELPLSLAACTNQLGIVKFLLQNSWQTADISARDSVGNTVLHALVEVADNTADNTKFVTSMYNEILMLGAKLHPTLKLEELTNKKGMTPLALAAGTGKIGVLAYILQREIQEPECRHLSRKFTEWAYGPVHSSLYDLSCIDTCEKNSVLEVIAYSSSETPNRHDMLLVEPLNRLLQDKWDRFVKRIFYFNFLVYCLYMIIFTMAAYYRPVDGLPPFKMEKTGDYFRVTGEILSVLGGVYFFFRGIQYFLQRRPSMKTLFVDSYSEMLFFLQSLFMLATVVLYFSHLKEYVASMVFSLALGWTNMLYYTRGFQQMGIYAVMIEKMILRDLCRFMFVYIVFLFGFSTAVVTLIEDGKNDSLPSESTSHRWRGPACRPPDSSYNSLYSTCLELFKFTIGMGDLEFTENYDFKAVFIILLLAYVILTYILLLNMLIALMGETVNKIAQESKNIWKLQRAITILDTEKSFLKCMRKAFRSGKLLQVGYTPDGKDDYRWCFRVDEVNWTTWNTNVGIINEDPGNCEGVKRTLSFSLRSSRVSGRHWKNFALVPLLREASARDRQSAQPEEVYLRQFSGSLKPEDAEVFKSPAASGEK
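TRPV1-expressing cells were cultured overnight at 35.5C and loaded with Fluo-8 calcium dye for 40 to 90 min at room temperature. After a 10 s baseline, compound was added and calcium influx was read kinetically for 3 min (ex 480/em 520 nm).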
TRPML1 ag = human mucolipin-1 channel agonism; 0.12% of 410,000 active; AID 624414; activation, % (concentration not given with the values); TRPML1-expressing cells, Ca2+ dye fluorescence, FDSS; host cell line not named in the record; reference of the full effect not given here; in the data active = activation above about 50%; inconclusive = about 30% to 50%; inactive = below about 30%; also: 0% is about no effect; the text of the record puts the active cut at 80%
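Tet-induced TRPML1-DL cells, 1,500 per well, cultured overnight, were loaded with a no-wash Ca2+ dye for 45–90 min. Calcium fluorescence was recorded on the FDSS for 110 s after compound addition, before the EC80 agonist (4 uM 54-4) was added.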
CtBP-E1A inh = inhibitors of CtBP/E1A interaction; AlphaScreen GST-E1A/His-CtBP binding, 1536-well; active compounds read low; control for the full effect not named in the record; activity change, % (test concentration not listed); 0.49% of 340,000 active; AID 651724; in the data active means activity change below about -65%; inconclusive means about -30% to -65%; inactive means above about -30%; also: % is scaled to controls: 0 for no effect and ±100 for the full control effect
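Protein mix (5X: 125 nM each GST-E1A, His-CtBP) was incubated with pinned compound 2 h at 37 deg C in dark, in 50 mM Tris pH 8.0 buffer with 300 mM NaCl. Glutathione donor and nickel acceptor beads followed; AlphaScreen signal read after 1 h.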
Six1-Eya2 inh = blocks human Six1 binding to Eya2 | AID 651725 | AlphaScreen GST-Six1/His-Eya2 binding, biochemical; active compounds read low; control for the full effect not named in the record | Q15475+O00167 | 0.56% of 360,000 active | activity change, % (concentration not given with the values); in the data active = activity change below about -65%; inconclusive = about -30% to -65%; inactive = above about -30%; also: % is scaled to controls: 0 for no effect and ±100 for the full control effect
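Compounds are tested against tagged Six1 and Eya2 proteins bridged by glutathione donor and nickel acceptor beads; after a one-hour incubation at 37 °C without light, AlphaScreen emission is recorded.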
* hit, by the source's call; ? = inconclusive; . = not tested or not shown; & = joins results of further samples.

SMILES	TRPML1 blocker	D2 potentiator	TRPV1 PAM	TRPML1 ag	CtBP-E1A inh	Six1-Eya2 inh
CC(=O)N1CC[n+]2c(-c3ccc(Cl)cc3)csc21	-3	1	5	0.9	-2	6
COc1ccccc1-c1nnc(SCC(=O)Nc2ccc(N3CCOCC3)cc2)n1N	7	-11	.	0.6	-21	-5
CC(=O)OC1CC(C)(C)N(OC(=O)c2ccccc2)C(C)(C)C1	2	-6	-8	3.7	-1	-2
COc1ccc(-c2nnn(CC(=O)N(Cc3ccccc3Cl)C(C(=O)NCC3CCCO3)c3ccco3)n2)cc1OC (stereo unspecified)	0	0	10	0.5	-9	-9
CCOCCCNC(=O)C(NC(=O)c1ccc(=O)[nH]c1)c1ccccc1 (stereo unspecified)	16	-15	-1	1.1	1	17
Cc1ccn2c(CNC(C)CCn3cccn3)c(C(=O)N3CCCCCC3)nc2c1 (stereo unspecified)	3	-17	-1	-0.8	2	9
CN(C(=O)c1ccncc1)C1CCCCC1	12	1	0	0.0	7	4
Cc1nc2ncnn2c(N2CCCC(C(=O)Nc3ccccc3Br)C2)c1C (stereo unspecified)	40	-7	-5	0.3	5	-5
O=C1c2cccc3cccc(c23)C(=O)N1CC1CCN(CC(O)COc2ccc3ccccc3c2)CC1 (stereo unspecified)	39	-29	-4	1.3	-27	-26
CC(C)(C)c1ccc(S(=O)(=O)NCC(=O)N2CCCC2)cc1	-15	-2	-5	-0.6	2	-6
Cc1cc(C)c(C)c(OCCCn2ccnc2)c1	12	-4	-2	0.2	-5	-12
COCCNC(=O)c1cnn2c(C(F)F)cc(-c3ccccc3)nc12	-9	-8	-2	0.6	-5	-6
Cc1ccc2nc(N/C(=N/S(=O)(=O)c3ccc(F)cc3F)c3ccccc3)sc2c1	17	-8	-4	-0.9	2	-2
CC(C)(O)C(=O)NN(C(=O)c1ccccc1)c1ccc2ccccc2c1	-3	-1	3	-0.8	16	9
O=c1cc(-c2ccncc2)oc2ccccc12	1	0	?	-0.6	-15	0
COc1ccccc1Cn1c(-c2ccco2)nc2nc3ccccc3nc21	16	-12	.	1.7	-1	-7
C=CCN1CCN(C(c2ccccc2OC)c2nnnn2C(C)(C)C)CC1 (stereo unspecified)	7	-9	0	-0.4	.	2
CCOc1ncccc1C(=O)Nc1ccc(Cl)c(S(=O)(=O)N2CCCC2)c1	20	-8	-4	2.2	-28	-9
COc1ccc(N2CCN(C(CNC(=O)C(C)(C)C)c3ccco3)CC2)cc1 (stereo unspecified)	.	-2	-8	.	-3	5
CCCCNC(=O)Nc1ccccc1C(=O)NCc1ccco1	14	4	0	0.8	-3	-1
CC(=O)c1ccc(NC(=O)/C(C#N)=C/c2ccncc2)cc1	22	3	21	-0.3	-6	-3
CC1(C)COC(Cc2ccccc2)=N1	8	-1	.	-0.8	1	8
O=C1CC(C(=O)Nc2ccccc2C(=O)O)C(c2ccccc2)O1 (stereo unspecified)	7	1	3	-1.1	6	-5
COc1ccccc1CNCCS(=O)(=O)NCc1ccccc1OC	-2	-18	.	0.5	2	-1
Cc1ccc(C(=O)N/C(=C\c2ccco2)C(=O)N2CCSCC2)cc1C	2	-7	3	0.8	4	10

Further records:
SMILES	TRPML1 blocker	D2 potentiator	TRPV1 PAM	TRPML1 ag	CtBP-E1A inh	Six1-Eya2 inh
O=C(COC(=O)C1COc2ccccc2O1)Nc1ccccc1OC(F)F (stereo unspecified)	0	5	.	-0.7	.	2
O=C(Nc1ccc(S(=O)(=O)Nc2ncccn2)cc1)c1cncc(Br)c1	13	15	9	0.3	11	16
Cc1cc(SCC2=NNC(=O)C2)c(Cl)cc1Cl	-14	0	3	-0.3	-2	-15
CCCCNC(=O)COC(=O)C1CCN(S(=O)(=O)c2ccc3c(c2)OCCO3)CC1	-8	-6	7	0.0	-3	2
c1ccc(NC2=Nc3ccccc3CS2)cc1	7	-22	2	-1.0	5	6
CCCN1CCN(CCCNC(=O)Cn2nc(C)n3c(cc4cc(OC)ccc43)c2=O)CC1	-8	-3	0	-0.4	.	1
CC(CC(=O)O)CC(=O)Nc1cccc([N+](=O)[O-])c1 (stereo unspecified)	9	-9	7	-0.2	12	35
CC1(C)CN(C2CCCCC2)C(=O)[C@H]1CC(=O)Nc1ccccc1	4	2	.	-0.5	7	-2
CC1(C(=O)NS(=O)(=O)c2ccccc2Cl)CCN1C(=O)C1(c2ccc(Cl)cc2)CCC1 (stereo unspecified)	.	-1	.	-0.8	-1	-1
COc1ccc(CC(=O)NNC(=O)c2ccncc2)cc1	12	-1	7	0.4	5	4
C=CCN(c1ccccc1)S(=O)(=O)c1ccc2c(c1)NC(=O)C(C)C(=O)N2 (stereo unspecified)	-1	1	5	0.1	9	0
O=C(Cc1ccccc1)Nc1cccc(NC(=O)c2cccs2)c1	3	-1	-16	2.3	-1	-1
CC1(C(=O)NS(=O)(=O)C2CC2)CCCN(C(=O)c2cccc(OC(F)(F)F)c2)C1 (stereo unspecified)	-26	-9	.	-0.2	3	3
Cc1cccc2c1N(C(=O)c1ccco1)C(C)(C)c1ssc(=S)c1-2	18	6	-10	4.3	-14	-3
CCOC(=O)c1ccc(NC(=O)CSc2ncccn2)cc1	15	-10	-11	1.7	-4	9
CCOC(=O)N1CCN(C(=O)c2cc(Cl)c(Cl)cc2C(=O)O)CC1	-10	9	5	-0.2	-6	-4
Cc1[nH]c2ccccc2c1CCNC(=O)CCC(=O)c1ccccc1	6	-17	-5	-1.1	2	-10
Cc1cc(C(=O)CN2C(=O)NC3(CCCc4sccc43)C2=O)c(C)n1-c1ccc(Cl)cc1 (stereo unspecified)	10	-4	10	0.2	-5	-22
COc1cccc(C(C(=O)NC2CCCC2)N(C(=O)c2ccco2)c2ccccc2)c1OC (stereo unspecified)	-5	-1	?	-0.1	17	20
CC(C)CN(C(=O)COC(=O)C1=COCCO1)c1c(N)n(Cc2ccccc2)c(=O)[nH]c1=O	-2	8	-2	-0.2	-4	1
O=C(NC(=S)NCc1ccccc1)c1cccs1	-8	-3	-25	0.3	-7	-12
Cn1c(SCC(=O)NC(=O)NCc2ccco2)nnc1C(F)(F)F	3	-9	6	0.2	4	0
CC(C)c1ccc(NC(=S)NCc2cccs2)cc1	-2	17	-4	-0.3	-2	-7
COCCCNC(=O)c1ccc2c(=O)n(Cc3ccc(OC)cc3)c(=O)[nH]c2c1	-8&20	6	-5	-0.1&-0.7	4	34
O=S1(=O)N=C(SCCO)c2ccccc21	?	-8	-7	-0.4	8	11

A draw from above in order of length of the SMILES, largest number first.
SMILES	TRPML1 blocker	D2 potentiator	TRPV1 PAM	TRPML1 ag	CtBP-E1A inh	Six1-Eya2 inh
Cc1cc(C(=O)CN2C(=O)NC3(CCCc4sccc43)C2=O)c(C)n1-c1ccc(Cl)cc1 (stereo unspecified)	10	-4	10	0.2	-5	-22
CC1(C(=O)NS(=O)(=O)C2CC2)CCCN(C(=O)c2cccc(OC(F)(F)F)c2)C1 (stereo unspecified)	-26	-9	.	-0.2	3	3
COc1cccc(C(C(=O)NC2CCCC2)N(C(=O)c2ccco2)c2ccccc2)c1OC (stereo unspecified)	-5	-1	?	-0.1	17	20
O=C(COC(=O)C1COc2ccccc2O1)Nc1ccccc1OC(F)F (stereo unspecified)	0	5	.	-0.7	.	2
Cn1c(SCC(=O)NC(=O)NCc2ccco2)nnc1C(F)(F)F	3	-9	6	0.2	4	0
Cc1cc(SCC2=NNC(=O)C2)c(Cl)cc1Cl	-14	0	3	-0.3	-2	-15

The list goes on:
SMILES	TRPML1 blocker	D2 potentiator	TRPV1 PAM	TRPML1 ag	CtBP-E1A inh	Six1-Eya2 inh
CCOC(=O)C1(Cc2ccccc2C)CCCN(C(=O)c2ccoc2)C1 (stereo unspecified)	14	-24	-16	-0.6	-10	0
COc1ccc(N(Cc2ccco2)C(=O)c2ccccc2F)cc1OC	-6	-9	-11	2.2	-3	8
CC1=Nc2ccccc2N=C(N)C1c1ccccc1 (stereo unspecified)	-10	0	-9	0.1	-14	-7
Cc1cccc(N2CCN(C(=O)c3ccc4nc(N5CCCCC5)sc4c3)CC2)c1C	-19	-3	-6	0.2	7	16
Cn1nccc1C(=O)c1ccc(Cl)cc1	-7	0	.	-0.6	10	14
CCN1CNC(=S)N(Cc2ccccc2)C1	-10	8	3	-0.3	1	-3
CCOC(=O)N1CCN(C(=O)COC(=O)C2CCN(S(=O)(=O)c3c(Cl)cccc3Cl)CC2)CC1	14	2	21	0.1	0	3
O=C(c1ccco1)N1CCN(C(=O)c2cccs2)CC1	8	0	2	0.6	-10	-1
O=C(c1cc([N+](=O)[O-])cc([N+](=O)[O-])c1)N(Cc1nnc(-c2ccccc2Cl)o1)C1CC1	-18	?	12	0.8	-1	-2
COCCn1c(-c2ccc3ccccc3c2)nc2c1c(=O)[nH]c(=O)n2CC(C)C	7	-8	-5	-0.2	-23	-4
Cc1ccccc1-c1nc(CS(=O)(=O)CC(=O)NCCCN2CCN(C)CC2)c(C)o1	-18&-15	-16	18	-0.5&-0.3	-10	-5
CCOCCCNC(=O)C(c1ccc(OC)cc1)N(Cc1ccc2c(c1)OCO2)C(=O)CNC(C)=O (stereo unspecified)	25	-6	7	0.3	4	7
CC(C)NCCCOc1ccc(Cl)cc1Br	14	-47	7	1.0	4	-1
COc1cc2[nH]c(C(=O)N(C)C3CCS(=O)(=O)C3)cc2c(OC)c1OC (stereo unspecified)	-8	-10	9	-0.2	3	0
COc1cccc(NC(=S)N(Cc2cccc(Br)c2)CC2CCC(C(=O)O)CC2)c1 (stereo unspecified)	-6	4	4	-0.1	-1	0
CCC(=O)c1cn(CC(=O)Nc2cccc(C)c2)c2ccccc12	-5	-3	-16	0.4	-2	6
Cc1ccc(NC(=O)CC(C)c2ccccc2)cc1S(=O)(=O)N1CCOCC1 (stereo unspecified)	11	6	.	-0.3	2	-2
S=c1nccc(-c2cccs2)[nH]1	7	-24	4	-0.5	-4	-1
C=CC[C@]12C=C(OC)C(=O)C(OC)=C1O[C@@H](c1ccc3c(c1)OCO3)[C@H]2C	.	-63	.	.	-2	-3
COC(=O)c1ccccc1NC(=O)c1ccc(F)cc1	0	-1	30	-0.7	10	9
Nc1nc2c(ncn2[C@@H]2O[C@H](CNCc3ccc4ncccc4c3)[C@@H](O)[C@H]2O)c(=O)[nH]1	-16	-3	.	0.5	7	6
Cc1nn(C(C)C(=O)NCc2ccccc2Cl)c(=O)c2c1sc1ccccc12 (stereo unspecified)	4	-12	5	0.3	4	-1
CC(C)Oc1ccc(C2CC(=O)N(c3ccc(C(=O)O)cc3)C2=O)cc1 (stereo unspecified)	26	-2	3	0.2	-8	-13
CC(=O)c1ccc2c(c1)N(C)c1ccccc1S2	2	8	-12	0.2	81	93
O=C(NCc1ccccn1)C1CCN(S(=O)(=O)c2cccs2)CC1	-7	-13	-14	-0.1	5	2
FC(F)Sc1ccc(NC(=S)NC(c2ccccc2)c2ccccc2)cc1	4	-17	-1	1.9	.	8
Cc1cccc(NC(=O)CCNC(=O)c2ccc(Br)cc2)c1C	14	-6	11	-0.5	-4	10
CN1C(=S)SC(C)(C)C1N(O)C(=O)Nc1ccc(Cl)cc1 (stereo unspecified)	2	-2	-15	-0.8	.	0

Compound activity deposited in PubChem by National Center for Advancing Translational Sciences (NCATS).
